# High-throughput results from PubChem.
# Calb FLC: C. albicans growth modulation with fluconazole. growth inhibition, % (concentration not given with the values). C. albicans CaCi-2 (fluconazole-resistant clinical isolate) + fluconazole, Alamar Blue growth, 48 h. 300,000 tested, 0.57% active. AID 1979;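 active = most replicates above 75%; inconclusive = exactly half above 75%; inactive = most below 75%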;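 note: all wells also contain fluconazole at 8 µg/ml as a sub-toxic cotreatment; 0% = median of DMSO wells and 100% = median of geldanamycin control wells; wells of about 8 µL received 7.5 nL stock; the first replicate is given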
# HNF4A DNA FP: change in binding of human HNF4 alpha to DNA; HNF4a-FITC DNA binding, fluorescence polarization, 1 h; activity change, % at 10 µM; 360,000 tested, 0.3% active; AID 1224865; in the data active = activity change above about 30%, passing the limit was not always enough;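 note: controls were the assay level and a saturating level of protein; the project sought stronger binding though the title names inhibitors; some compounds called inactive have numbers as strong as hits; positive values seem to mean higher polarization but the record does not say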
# Target sequence (P41235 whole entry, looked up): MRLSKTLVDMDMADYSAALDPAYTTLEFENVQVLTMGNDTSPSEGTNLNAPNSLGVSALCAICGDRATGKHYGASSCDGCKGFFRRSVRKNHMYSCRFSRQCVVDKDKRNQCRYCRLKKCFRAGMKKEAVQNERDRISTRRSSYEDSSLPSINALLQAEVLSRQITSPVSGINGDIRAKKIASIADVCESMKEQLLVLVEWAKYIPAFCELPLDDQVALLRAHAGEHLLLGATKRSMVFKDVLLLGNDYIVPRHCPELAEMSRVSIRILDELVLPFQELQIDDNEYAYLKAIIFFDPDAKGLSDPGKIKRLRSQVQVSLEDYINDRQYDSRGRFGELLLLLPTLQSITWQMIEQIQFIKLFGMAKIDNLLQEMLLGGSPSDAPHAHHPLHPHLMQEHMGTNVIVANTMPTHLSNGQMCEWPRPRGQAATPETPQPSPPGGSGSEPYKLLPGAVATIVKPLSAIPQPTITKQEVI
# Beta2AR agonist: agonists of human beta-2 adrenergic receptor inducing internalization | P07550 | Am2.2-beta2AR cells, FAP receptor internalization, flow cytometry; reference of the scale not given here | response, % (concentration not given with the values) | 340,000 tested, 0.43% active;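 active = response above a set limit, near 3 SD of response in nonfluorescent compounds, cut at about 42% in these data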;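 note: stock transfer was 100 nL into about 11 µL; a reference agonist was the positive control; negative values mostly stem from fluorescent compounds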
# Target sequence (P07550 whole entry, looked up): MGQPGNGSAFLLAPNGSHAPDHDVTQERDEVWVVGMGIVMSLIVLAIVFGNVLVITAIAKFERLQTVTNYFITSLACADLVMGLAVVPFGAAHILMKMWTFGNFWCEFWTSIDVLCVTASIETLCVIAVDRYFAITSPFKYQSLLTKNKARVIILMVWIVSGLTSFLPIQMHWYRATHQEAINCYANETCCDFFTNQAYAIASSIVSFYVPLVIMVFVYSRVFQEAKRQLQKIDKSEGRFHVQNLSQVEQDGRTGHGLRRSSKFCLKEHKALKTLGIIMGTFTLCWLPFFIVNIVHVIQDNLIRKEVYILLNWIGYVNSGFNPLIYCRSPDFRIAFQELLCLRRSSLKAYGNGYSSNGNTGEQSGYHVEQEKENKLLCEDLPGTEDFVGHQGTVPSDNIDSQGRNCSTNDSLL
# Vif A3G: inhibitors of Vif binding to APOBEC3G peptide, primary screen, biochemical, TR-FRET, GST-Vif 1-94, biotin-A3G peptide, dose response retest (AID 1117319); inhibition, %; hits with a dose series show IC50 in µM; 260,000 tested, 0.57% active; TR-FRET GST-Vif / biotin-A3G peptide binding; higher % means a stronger effect; test concentration not given here; strong numbers were not always called active;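 active = above the screen mean plus three standard deviations and confirmed in dose response; inconclusive = results disagree or hit not tested in dose response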;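 note: Vif residues 1-94 fused to GST binding biotinylated APOBEC3G peptide 110-148; 0% = full assay without inhibitor and 100% = GST in place of GST-Vif; retest series ran down from 100 µM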
# LANA-H2B inh: blocks KSHV LANA binding to histone H2A/H2B. inhibition, % (test concentration not listed). 320,000 tested, 0.6% active. cell-free LANA-H2A/H2B peptide, fluorescence polarization. Q9QR71; in the data active = inhibition mostly above about 10%, no sharp cut-off; inactive = mostly below about 6.7%;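 note: stock transfer was 7.5 nL into about 10 µL; 0% = median of vehicle wells and 100% = median of positive control wells; one replicate is shown; the record names a cut of 25% in any replicate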
# RanGTP-Impb inh: disruptors of Ran-importin-beta complex formation – biochemical, FRET, CFP-Ran, YFP-importin-beta, homogeneous, primary screen; inhibition, % (test concentration not listed); 300,000 tested, 1.1% active; cell-free CFP-Ran/YFP-importin-beta FRET ratio; AID 2216;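 active = most replicates above 15%; inconclusive = exactly half above 15%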;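 note: 0% = DMSO wells and 100% = Ran loaded with GDP instead of GTP; wells of about 40 µL received 100 nL stock; the first replicate is given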
# ALR inh: inhibitors of human sulfhydryl oxidase ALR; inhibition, % (concentration not given with the values); 290,000 tested, 3.8% active; P55789; AID 485317; purified ALR, DTT oxidation, H2O2 HRP-luminol luminescence;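 active = mean and each replicate at 75% or more; inconclusive = only one of the two met; inactive = neither met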;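 note: stock transfer was 7.5 nL into about 7.5 µL; 0% = neutral wells and 100% = wells with inactivated enzyme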
# Target sequence (P55789 whole entry, looked up): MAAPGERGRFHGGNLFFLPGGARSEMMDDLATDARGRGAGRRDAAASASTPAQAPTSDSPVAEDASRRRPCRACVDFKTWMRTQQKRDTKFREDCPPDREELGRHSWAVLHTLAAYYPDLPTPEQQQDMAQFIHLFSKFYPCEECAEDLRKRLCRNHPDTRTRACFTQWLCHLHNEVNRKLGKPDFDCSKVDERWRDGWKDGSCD
# * = called active by the depositor; u = inconclusive; x = not tested or not shown.
# Abbreviations: A = Calb FLC; B = HNF4A DNA FP; C = Beta2AR agonist; D = Vif A3G; E = LANA-H2B inh; F = RanGTP-Impb inh; G = ALR inh
CCSc1nnc(NC(=O)CSc2nnc(Cc3cccn3C)n2-c2ccc(F)cc2)s1
  A: u	B: 2.5	C: -6	D: 21%	E: x	F: -1.6	G: x
C/C(=N\Nc1nc2c(s1)CCCC2)c1ccccc1
  A: -3	B: -1.9	C: -1	D: u	E: -3.1	F: 4.0	G: x
CCN(CC(=O)NCc1ccc(Cl)cc1)C(=O)Cc1ccccc1[N+](=O)[O-]
  A: 11	B: 1.8	C: -1	D: -5%	E: 1.3	F: -3.0	G: -8
CCCSc1nnc2nc3c(nn12)c1ccccc1n3C
  A: 3	B: 4.1	C: -24	D: 14%	E: -1.4	F: -1.3	G: -11
CC1C(=O)N2CCCc3cc(NC(=O)c4ccccc4C(F)(F)F)cc1c32 (centres undefined)
  A: 31	B: -3.1	C: 0	D: -5%	E: 7.6	F: 2.7	G: -9
c1ccc(-c2nnc(NC3=NCCC3)o2)cc1
  A: 5	B: -0.2	C: 2	D: x	E: 1.9	F: -1.1	G: 1
COc1ccc(C(=O)N2CCC(C(=O)Nc3ccc(OC)c(OC)c3)CC2)cc1
  A: -3	B: -1.0	C: -2	D: 2%	E: 3.4	F: -1.9	G: -54
CC1(NC(=O)c2cc(S(=O)(=O)N3CCCCC3)ccc2Cl)CCS(=O)(=O)C1 (centres undefined)
  A: -1	B: 1.3	C: 5	D: 11%	E: -2.2	F: -3.3	G: -5
COc1ccc(C(=O)CC(=O)C(=O)Nc2ccccc2Cl)cc1
  A: -9	B: 3.7	C: -4	D: 3%	E: -0.6	F: -0.8	G: -2
Cc1ccc(C(=O)NC(=S)Nc2ccc(CN3CCOCC3)cc2)cc1
  A: 6	B: 1.2	C: -12	D: -8%	E: 0.9	F: -2.0	G: -1
C=CCn1c(NCc2cc(Cl)ccc2O)nc2ccccc21
  A: -1	B: -1.0	C: -4	D: x	E: -5.4	F: -3.1	G: 33
Cc1ccc(C)c2c1cc(C)c1nnc(SCC(=O)Nc3cccc(C(=O)O)c3)n12
  A: 2	B: -0.9	C: -5	D: 2%	E: 1.0	F: 3.3	G: 3
Cc1c(NC(=S)NC(=O)c2ccc(COc3ccccc3)cc2)cccc1C(=O)O
  A: -2	B: 6.0	C: 6	D: -11%	E: -0.5	F: -2.3	G: -13
COc1ccccc1NC(=O)c1cc([N+](=O)[O-])ccc1NCCN1C(=O)CCC1=O
  A: -3	B: 0.6	C: -9	D: 27%	E: 2.1	F: 0.7	G: 1
CC(OC(=O)CN1C(=O)c2ccccc2C1=O)C(=O)NC1(C#N)CCCCC1 (centres undefined)
  A: x	B: -2.9	C: -1	D: x	E: 5.0	F: x	G: 4
O=C(NNC(=O)c1ccncc1)Nc1ccc(Cl)cc1
  A: x	B: -2.3	C: 7	D: 0%	E: x	F: x	G: x
Cn1ccsc1=NC(=O)c1ccc(Cl)cc1
  A: 26	B: 4.5	C: -6	D: 1%	E: -1.3	F: -0.7	G: 3
CC(C)[C@H](NC(N)=O)C(=O)Nc1cccc(S(=O)(=O)NC2=NCCCCC2)c1
  A: x	B: -4.1	C: -2	D: 0%	E: x	F: x	G: x
O=C(O)c1ccc(S(=O)(=O)NC2CCCCC2)cc1
  A: -8	B: 0.1	C: 1	D: -6%	E: -2.6	F: 8.1	G: -8
Oc1c(Br)cc(Cl)cc1C=Nc1ccc(N2CCOCC2)cc1
  A: 28	B: 3.1	C: 8	D: 29%	E: -4.1	F: -15	G: 33
Cc1ccc(NC(=O)CSc2nc3ccccc3c(=O)n2CCCN2CCCCC2)cc1C
  A: u	B: -1.6	C: 19	D: 0%	E: 0.1	F: -3.0	G: 98*
COc1ccccc1NC(=O)CSc1nc2nc(C)cc(C)c2c(=O)[nH]1
  A: -1	B: 2.8	C: 8	D: -2%	E: 1.1	F: 0.2	G: 91*
Cc1ccc(C(=O)c2ccc([N+](=O)[O-])cc2)cc1C
  A: 14	B: -0.9	C: 8	D: -2%	E: 0.7	F: 2.7	G: 2
COc1cc2c(cc1OC)C(c1ccc(N(C)C)cc1)NCC2 (centres undefined)
  A: -5	B: 1.1	C: 15	D: 7%	E: 1.1	F: 12	G: 21
CCOC(=O)CN1C(=O)N[C@@H](c2ccccc2)C(C(=O)OC)=C1C
  A: x	B: -1.3	C: 23	D: -6%	E: 2.1	F: x	G: -13

# 3 compounds from above, sorted by the value under ALR inh, low to high.
SMILES | HNF4A DNA FP | Beta2AR agonist | Vif A3G | LANA-H2B inh | RanGTP-Impb inh | ALR inh
CCOC(=O)CN1C(=O)N[C@@H](c2ccccc2)C(C(=O)OC)=C1C | -1.3 | 23 | -6% | 2.1 | x | -13
CC1(NC(=O)c2cc(S(=O)(=O)N3CCCCC3)ccc2Cl)CCS(=O)(=O)C1 (centres undefined) | 1.3 | 5 | 11% | -2.2 | -3.3 | -5
Cn1ccsc1=NC(=O)c1ccc(Cl)cc1 | 4.5 | -6 | 1% | -1.3 | -0.7 | 3

# Next section
# Abbreviations: A = Calb FLC; B = HNF4A DNA FP; C = Beta2AR agonist; D = Vif A3G; E = LANA-H2B inh; F = RanGTP-Impb inh; G = ALR inh
CCC(C)N1C(=O)/C(=C/c2c(NCCCOC(C)C)nc3c(C)cccn3c2=O)SC1=S (centres undefined)
  A: x	B: 1.8	C: x	D: -1%	E: -11	F: x	G: -4
Cc1ccc(S(=O)(=O)N2CCN(CC(=O)NC3CCCc4ccccc43)CC2)c(C)c1 (centres undefined)
  A: -4	B: 1.0	C: 10	D: -4%	E: 0.5	F: 0.4	G: 5
CC(=O)Nc1cccc(NC(=O)CSc2nc3ccccc3o2)c1
  A: -20	B: 0.2	C: -6	D: 16%	E: 5.2	F: u	G: x
COc1ccc(Cl)cc1S(=O)(=O)Oc1ccc(NC(C)=O)cc1
  A: -1	B: -2.1	C: -7	D: -3%	E: -1.0	F: 0.4	G: -3
Cc1cccnc1NC(=S)NCc1ccco1
  A: -11	B: 1.2	C: -2	D: -2%	E: -1.5	F: -4.6	G: 3
Cc1ccc(/C=C2\SC(N3CCCC3)=NC2=O)cc1
  A: -11	B: x	C: x	D: x	E: -3.8	F: -0.3	G: x
CCOc1cc(C=O)ccc1OS(=O)(=O)c1ccc(NC(C)=O)cc1
  A: -4	B: 3.3	C: -11	D: x	E: -1.5	F: 0.3	G: 6
O=C(N/N=C\c1ccc(OC(=O)c2ccco2)cc1)c1ccc(Cl)cc1
  A: 5	B: -2.2	C: 2	D: 1%	E: -4.0	F: -0.4	G: -6
CCOC(=O)c1c(C)[nH]c(C(=O)N/N=C/c2ccc(Br)cc2)c1C
  A: 0	B: -1.6	C: 9	D: x	E: 2.2	F: 3.5	G: x
COc1ccc(/C=C/CN2CCC(n3nccc3NC(=O)C3CCCC3)CC2)cc1
  A: 11	B: -5.8	C: 4	D: x	E: 4.9	F: 4.9	G: -2
COc1cc(CN(C(C)=O)c2ccccc2C(=O)O)ccc1[N+](=O)[O-]
  A: x	B: -0.9	C: -20	D: 0%	E: x	F: x	G: x
O=C(NC(=S)NC1C2CC3CC(C2)CC1C3)c1ccccc1 (centres undefined)
  A: -7	B: -4.3	C: -2	D: x	E: 0.4	F: -10	G: -1
CCOC(=O)c1cnc2ccc(Br)cc2c1NCCCN1CCOCC1
  A: 3	B: 1.8	C: -5	D: x	E: -1.0	F: -2.6	G: 59
Cc1nn(C)cc1CN1CCC(n2nccc2NC(=O)CCCc2ccccc2)CC1
  A: 8	B: -1.8	C: -4	D: 7%	E: 0.8	F: 3.2	G: -14
Cc1cccc(C(=O)NNC(=O)c2ccccc2O)c1
  A: -3	B: -0.9	C: -1	D: 6%	E: -2.3	F: -3.1	G: -3
O=C(N/C(=C\c1ccc([N+](=O)[O-])cc1)C(=O)N1CCOCC1)c1ccccc1
  A: 22	B: -2.4	C: 1	D: -2%	E: 2.1	F: 0.2	G: -12
Cc1ccc(C(=O)OCC(=O)Nc2ccc(Cl)cn2)s1
  A: x	B: 2.9	C: -6	D: -4%	E: 5.0	F: x	G: x
CNC(=O)CSc1nccn1Cc1ccc(Cl)cc1
  A: -11	B: 1.8	C: 6	D: 2%	E: 2.6	F: 5.4	G: -1
CC(=O)O[C@@H]1[C@@]2(C)O[C@H]2CC[C@]23O[C@H]2[C@H](OC3=O)C2=C(C)C(=O)O[C@@]21O
  A: -7	B: -2.3	C: -2	D: 4%	E: 6.4	F: -0.3	G: -1
O=C(Nc1cccc(S(=O)(=O)N2CCOCC2)c1)c1ccc(N2CCCC2=O)cc1
  A: x	B: 1.5	C: 2	D: 8%	E: -5.3	F: x	G: x
Cc1cc(CC(C)C)n(-c2nc3ccccc3c(=O)n2OCC(=O)N(C)C)n1
  A: -12	B: -1.8	C: -6	D: 5%	E: -8.3	F: x	G: x
N#C/C(=C\c1ccc(N2CCOCC2)o1)c1nc2ccccc2[nH]1
  A: -4	B: 34	C: -36	D: u	E: x	F: -28	G: x
O=C(CN1CCN(c2ccc(O)cc2)CC1)Nc1cc(S(=O)(=O)N2CCCC2)ccc1Cl
  A: -11	B: -0.8	C: 5	D: u	E: -4.2	F: 2.2	G: 90*
CCOc1ccc(Cl)cc1CNc1nnnn1C
  A: -6	B: -0.2	C: 2	D: 7%	E: -4.2	F: -4.1	G: 13
COc1ccccc1NC(=O)COC(=O)c1cc([N+](=O)[O-])ccc1N1CCCC1
  A: x	B: 0.9	C: -1	D: -2%	E: -7.6	F: x	G: x
COc1ccc(Cn2cccc(NC(=O)Nc3cccc(OC)c3)c2=O)cc1
  A: 1	B: 2.1	C: 10	D: 2%	E: -3.0	F: -0.6	G: -13
Cc1ccc(OCCSc2nnc(-c3cccs3)n2C)cc1
  A: -9	B: -1.6	C: -15	D: -1%	E: -3.2	F: 1.1	G: 1
Cc1ccc(N(C(=O)CNC(=O)c2ccco2)C(C(=O)NC2CCCCC2)c2ccncc2)cc1F (centres undefined)
  A: -8	B: 3.1	C: -12	D: -5%	E: 7.9	F: 1.0	G: x
N#CCCN1CCN(S(=O)(=O)c2ccc(S(=O)(=O)NC3CCCCC3)cc2)CC1
  A: -3	B: 1.0	C: -2	D: 5%	E: -0.9	F: u	G: -17
COCC(C)n1c(C)cc(C(=O)COC(=O)c2cnc(Cl)c(Cl)c2)c1C (centres undefined)
  A: x	B: 1.3	C: 8	D: x	E: 1.2	F: x	G: 3
Cc1nc2ccc(Br)cn2c1C(=O)N/N=C\c1ccccc1Cl
  A: 1	B: -2.2	C: -5	D: x	E: 0.1	F: -1.6	G: 3

# 4 of the compounds above, as labelled records:
COc1ccccc1NC(=O)COC(=O)c1cc([N+](=O)[O-])ccc1N1CCCC1
  Calb FLC: x
  HNF4A DNA FP: 0.9
  Beta2AR agonist: -1
  Vif A3G: -2%
  LANA-H2B inh: -7.6
  RanGTP-Impb inh: x
  ALR inh: x
COc1ccc(Cn2cccc(NC(=O)Nc3cccc(OC)c3)c2=O)cc1
  Calb FLC: 1
  HNF4A DNA FP: 2.1
  Beta2AR agonist: 10
  Vif A3G: 2%
  LANA-H2B inh: -3.0
  RanGTP-Impb inh: -0.6
  ALR inh: -13
Cc1ccc(OCCSc2nnc(-c3cccs3)n2C)cc1
  Calb FLC: -9
  HNF4A DNA FP: -1.6
  Beta2AR agonist: -15
  Vif A3G: -1%
  LANA-H2B inh: -3.2
  RanGTP-Impb inh: 1.1
  ALR inh: 1
Cc1ccc(N(C(=O)CNC(=O)c2ccco2)C(C(=O)NC2CCCCC2)c2ccncc2)cc1F (centres undefined)
  Calb FLC: -8
  HNF4A DNA FP: 3.1
  Beta2AR agonist: -12
  Vif A3G: -5%
  LANA-H2B inh: 7.9
  RanGTP-Impb inh: 1.0
  ALR inh: x
